# High-throughput results as filed in PubChem.
# Env fusion inh – inhibitors of HIV Env-mediated cell fusion | inhibition, % at 12.3 µM | AID 651610 | 360,000 compounds, 1.1% hits | HeLa-JRFL Env/CEM21 cell fusion, luciferase;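 active = mean replicate inhibition score of at least 50 and every replicate individually at or above 50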;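 note: 0% = plate neutral controls and 100% = maraviroc near 300 nM; one replicate is shown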
# Yeast UUG start – yeast start codon fidelity modulation; S. cerevisiae UUG-firefly luciferase reporter, luminescence/redox ratio; 350,000 compounds, 0.13% hits; AID 602363; activity score, % at 18.7 µM;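 active = replicate mean at a twofold rise or more, about +100% in these data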;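 note: firefly luciferase made from a UUG start codon reports start codon fidelity; reporter light over untreated wells divided by growth signal over untreated wells; some hits fall short of that in this replicate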
# * marks the source's active call; other numbers are inactive results; [ ] = dose if it differs, or a comment. A portion of the library; count on the stated rates, not on these rows.
Env fusion inh,Yeast UUG start,compound
-14.7[16.7 µM],-9.1,C[C@H]1CN([C@@H](C)CO)S(=O)(=O)c2ccc(C3=CCCC3)cc2O[C@H]1CN(C)CC1CCOCC1
9.5[16.7 µM],-14.5,C[C@H](NC(=O)C[C@@H]1CC[C@H](NC(=O)Nc2ccc3c(c2)OCO3)[C@H](CO)O1)c1ccccc1
0.3[16.7 µM],-12.9,CO[C@H]1CN(C)C(=O)c2cc(NC(=O)c3ccccc3F)ccc2OC[C@@H](C)N(C)C[C@@H]1C
-1.1[16.7 µM],14.4,C[C@@H](NC(=O)C[C@@H]1C=C[C@@H](NS(=O)(=O)c2cccc(F)c2)[C@@H](CO)O1)c1ccccc1
-2.8[16.7 µM],2.8,Cc1ccccc1NC(=O)Nc1ccc2c(c1)C(=O)N(C)[C@@H]1CC[C@H](CC(=O)O)O[C@H]1CO2
-4.5[16.7 µM],-9.3,Cc1ccc(S(=O)(=O)Nc2ccc3c(c2)C(=O)N([C@H](C)CO)C[C@H](C)[C@H](CN(C)C(=O)Nc2c(C)noc2C)O3)cc1
-18.3[16.7 µM],54.7,C[C@H](CO)N1C[C@H](C)[C@@H](CN(C)Cc2ccc(Cl)c(Cl)c2)OCCCC[C@H](C)Oc2ccc(NS(=O)(=O)c3ccc(Cl)cc3)cc2C1=O
-39.5[16.7 µM],-5.6,N#C[C@@H]1N[C@@H](CO)[C@H]1c1ccc(C#Cc2ccc(F)cc2)cc1
-1.0[16.7 µM],2.2,Cc1noc(C)c1NC(=O)N[C@H]1CC[C@@H](CCNC(=O)C2CCCC2)O[C@@H]1CO
1.1[16.7 µM],3.1,O=C(Cc1ccccn1)N[C@H]1CC[C@@H](CCNS(=O)(=O)c2cccc(F)c2)O[C@H]1CO
1.5[16.7 µM],-11.7,CO[C@@H]1CN(C)C(=O)c2cc(NS(=O)(=O)CC(F)(F)F)ccc2OC[C@@H](C)N(C)C[C@H]1C
19.0[16.7 µM],7.4,CC(C)CC#Cc1cnc2c(c1)C(=O)N([C@H](C)CO)C[C@H](C)[C@H](CN(C)C(=O)Nc1cccc(F)c1)O2
17.2[16.7 µM],-2.3,CN1C(=O)c2cc(NC(=O)c3ccc(C(F)(F)F)cc3)ccc2OC[C@@H]2O[C@H](CC(=O)NCc3ccc4c(c3)OCO4)CC[C@@H]21
13.2[16.7 µM],14.1,CC(C)NC(=O)Nc1ccc2c(c1)C(=O)N([C@@H](C)CO)C[C@H](C)[C@H](CN(C)Cc1ccc(C(F)(F)F)cc1)OCCCC[C@@H](C)O2
0.4[16.7 µM],-10.4,O=C(C[C@H]1C[C@H]2c3cc(NC(=O)NC4CCCCC4)ccc3O[C@H]2[C@H](CO)O1)NCC(F)(F)F
3.4[16.7 µM],-8.0,COCC#Cc1ccc2c(c1)O[C@@H](CN(C)Cc1cncnc1)[C@@H](C)CN([C@@H](C)CO)S2(=O)=O
-2.0[16.7 µM],-7.0,O=C(C[C@H]1C[C@@H]2c3cc(NC(=O)Nc4ccc(C(F)(F)F)cc4)ccc3O[C@@H]2[C@H](CO)O1)NC1CCCCC1
-4.6[16.7 µM],0.6,O=C(N[C@H]1CC[C@@H](CC(=O)N2CCC(Cc3ccccc3)CC2)O[C@H]1CO)c1cnccn1
3.3[16.7 µM],0.6,CC(C)NC(=O)N(C)C[C@H]1Oc2ncc(C#Cc3ccc(F)cc3)cc2C(=O)N([C@H](C)CO)C[C@H]1C
9.5[16.7 µM],5.5,COCC#Cc1ccc2c(c1)O[C@@H](CN(C)C(=O)C1CCC1)[C@@H](C)CN([C@@H](C)CO)S2(=O)=O
3.3[16.7 µM],-21.6,COc1ccccc1CNC(=O)C[C@@H]1CC[C@@H](NC(C)=O)[C@@H](CO)O1
7.1[16.7 µM],5.2,COc1ccc(-c2cnc3c(c2)C(=O)N([C@H](C)CO)C[C@H](C)[C@H](CN(C)C(=O)C2CCC2)O3)cc1
6.7[16.7 µM],1.4,COCCCNC(=O)[C@@]1(C)c2ccccc2C(=O)N(Cc2cc(F)cc(C(F)(F)F)c2)[C@H]1c1ccc(CO)cc1
8.1[16.7 µM],-3.5,O=C(C[C@@H]1CC[C@H](NC(=O)Nc2ccc3c(c2)OCO3)[C@H](CO)O1)NCc1ccccc1
21.0[16.7 µM],-7.2,C[C@H](NC(=O)C[C@@H]1CC[C@@H]2[C@H](COC[C@@H](O)CN2Cc2ccc(C(F)(F)F)cc2)O1)c1ccccc1
10.4[16.7 µM],-15.9,COc1ccc(S(=O)(=O)N(C)C[C@H]2OCCCC[C@@H](C)Oc3ccc(NC(=O)Nc4ccccc4)cc3C(=O)N([C@H](C)CO)C[C@@H]2C)cc1
-6.2[16.7 µM],-3.3,CCCC(=O)Nc1ccc2c(c1)C(=O)N(C)[C@H]1CC[C@H](CC(=O)NCC3CCCCC3)O[C@@H]1CO2
-24.3[16.7 µM],-0.8,O=C(NCC[C@@H]1CC[C@@H](NS(=O)(=O)c2cccc(F)c2)[C@H](CO)O1)C1CCCC1
-58.9[16.7 µM],10.6,C[C@@H]1CCCCO[C@H](CN(C)C(=O)c2ccccc2)[C@@H](C)CN([C@@H](C)CO)C(=O)c2cc(NS(=O)(=O)c3cccs3)ccc2O1
-33.5[16.7 µM],8.5,CCCNC(=O)C[C@H]1C[C@@H]2c3cc(NC(=O)Nc4ccccc4)ccc3O[C@@H]2[C@@H](CO)O1
-53.6[16.7 µM],-7.1,C[C@@H]1CCCCO[C@H](CN(C)Cc2ccccc2)[C@@H](C)CN([C@@H](C)CO)C(=O)c2cc(NC(=O)Nc3ccc4c(c3)OCO4)ccc2O1
-6.3[16.7 µM],-2.8,CN(C)C(=O)C[C@H]1C=C[C@@H](NC(=O)C2CC2)[C@H](CO)O1
9.5[16.7 µM],-2.8,C[C@@H]1CN([C@H](C)CO)C(=O)c2cc(NC(=O)CCN3CCOCC3)ccc2O[C@@H]1CN(C)Cc1ccccc1
-56.8[16.7 µM],5.5,COc1ccc(S(=O)(=O)Nc2ccc3c(c2)CC(=O)N([C@H](C)CO)C[C@H](C)[C@H](CN(C)Cc2ccc(Cl)c(Cl)c2)O3)cc1
-13.8[16.7 µM],4.7,C[C@@H]1CCCCO[C@H](CN(C)C(=O)CCC(F)(F)F)[C@@H](C)CN([C@H](C)CO)C(=O)c2cc(NC(=O)Nc3ccc4c(c3)OCO4)ccc2O1
-51.8[16.7 µM],-12.2,O=C(C[C@@H]1C[C@H]2c3cc(NS(=O)(=O)c4ccc(F)cc4)ccc3O[C@H]2[C@@H](CO)O1)N1CCOCC1
-2.4[16.7 µM],6.0,O=S(=O)(N[C@@H]1CC[C@@H](CCn2cc(-c3cccc(F)c3)nn2)O[C@@H]1CO)c1ccc(Cl)cc1
4.9[16.7 µM],3.6,C[C@@H]1CCCCO[C@@H](CN(C)Cc2ccc(Cl)c(Cl)c2)[C@H](C)CN([C@@H](C)CO)C(=O)c2cc(NC(=O)c3ccccc3)ccc2O1
13.7[16.7 µM],7.6,COc1ccc(NC(=O)N(C)C[C@@H]2Oc3ccc(NC(=O)Cc4cn(C)c5ccccc45)cc3CC(=O)N([C@H](C)CO)C[C@H]2C)cc1
-2.5[16.7 µM],-12.0,COc1ccc(-c2ccc([C@H]3[C@@H](C#N)N(C(=O)C4CCCC4)[C@@H]3CO)cc2)cc1
4.0[16.7 µM],-6.8,CNC[C@H]1Oc2ncc(-c3ccc(C#N)cc3)cc2C(=O)N([C@@H](C)CO)C[C@H]1C
-7.8[16.7 µM],-7.6,C[C@@H]1CN([C@H](C)CO)C(=O)c2cc(NS(C)(=O)=O)ccc2O[C@H]1CN(C)Cc1ccncc1
9.4[16.7 µM],-13.3,C[C@H](CO)N1C[C@H](C)[C@H](CN(C)S(=O)(=O)c2ccccc2)OCCCC[C@H](C)Oc2ccc(NC(=O)Nc3ccc(C(F)(F)F)cc3)cc2C1=O
11.0[16.7 µM],-7.2,C[C@H]1CN([C@@H](C)CO)C(=O)c2cc(C3=CCCCC3)cnc2O[C@@H]1CN(C)CC1CCCC1
22.0[16.7 µM],-9.2,C[C@H]1CN([C@@H](C)CO)C(=O)Cc2cc(NC(=O)Nc3cccc4ccccc34)ccc2O[C@@H]1CN(C)C(=O)Nc1cccc2ccccc12
38.9[16.7 µM],-2.0,O=C(C[C@@H]1C=C[C@@H](NC(=O)c2ccccc2)[C@@H](CO)O1)Nc1ccc(-c2ccccc2)cc1
-2.5[16.7 µM],1.0,COCC(=O)Nc1ccc2c(c1)OC[C@@H](C)N(C(=O)c1ccncc1)C[C@@H](C)[C@@H](OC)CN(C)C2=O
11.2[16.7 µM],-4.1,Cc1noc(C)c1S(=O)(=O)N(C)C[C@H]1OCCCC[C@H](C)Oc2ccc(NS(=O)(=O)c3ccc(Cl)cc3)cc2C(=O)N([C@H](C)CO)C[C@@H]1C
-3.3[16.7 µM],-1.5,C[C@H]1CN([C@@H](C)CO)C(=O)c2cc(C#Cc3cccc(F)c3)cnc2O[C@@H]1CN(C)CC1CCOCC1
-8.7[16.7 µM],-16.2,C[C@H]1CN([C@@H](C)CO)S(=O)(=O)c2ccc(Br)cc2O[C@H]1CN(C)C(=O)C1CCCCC1

# Later entries:
Env fusion inh,Yeast UUG start,compound
-14.0[16.7 µM],-3.9,C[C@H]1CCCCO[C@@H](CN(C)C(=O)Nc2ccccc2)[C@@H](C)CN([C@@H](C)CO)C(=O)c2cc(NC(=O)Nc3ccc(F)cc3)ccc2O1
16.5[16.7 µM],-9.1,CO[C@@H]1CN(C)C(=O)c2cc(NC(C)=O)ccc2OC[C@H](C)N(Cc2cc(F)ccc2F)C[C@@H]1C
-12.2[16.7 µM],11.0,C[C@@H]1CN([C@H](C)CO)C(=O)c2cc(C#CC3(O)CCCC3)cnc2O[C@H]1CN(C)C(=O)Nc1ccc2c(c1)OCO2
0.2[16.7 µM],8.7,C[C@@H]1CN([C@@H](C)CO)C(=O)c2cc(NC(=O)Cc3ccccc3)ccc2O[C@H]1CN(C)S(=O)(=O)c1ccc(Cl)cc1
13.3[16.7 µM],-11.6,COc1cccc(C#Cc2ccc([C@@H]3[C@@H](CO)N(C(=O)C4CCOCC4)[C@H]3C#N)cc2)c1
4.6[16.7 µM],-17.6,COc1ccc(CNC(=O)C[C@H]2CC[C@@H](NS(=O)(=O)c3cccc(OC)c3)[C@@H](CO)O2)cc1
-38.2[16.7 µM],8.4,C[C@H](CO)N1C[C@H](C)[C@@H](CN(C)Cc2ccc(C(F)(F)F)cc2)OCCCC[C@H](C)Oc2ccc(NS(=O)(=O)c3cn(C)cn3)cc2C1=O
-14.0[16.7 µM],-10.0,CCCNC(=O)N[C@@H]1C=C[C@@H](CC(=O)N2CCN(C)CC2)O[C@@H]1CO
-0.8[16.7 µM],78.8,C[C@@H]1CN([C@@H](C)CO)C(=O)c2cc(C#CCN(C)C)cnc2O[C@@H]1CN(C)Cc1ccc2c(c1)OCO2
-0.5[16.7 µM],-1.6,C[C@H]1CN([C@@H](C)CO)C(=O)c2cc(NC(=O)CCCN(C)C)ccc2O[C@@H]1CN(C)Cc1ccncc1

# Reprinted at random: 4 entries already listed, in no set order.
Env fusion inh,Yeast UUG start,compound
3.4[16.7 µM],-8.0,COCC#Cc1ccc2c(c1)O[C@@H](CN(C)Cc1cncnc1)[C@@H](C)CN([C@@H](C)CO)S2(=O)=O
13.3[16.7 µM],-11.6,COc1cccc(C#Cc2ccc([C@@H]3[C@@H](CO)N(C(=O)C4CCOCC4)[C@H]3C#N)cc2)c1
-13.8[16.7 µM],4.7,C[C@@H]1CCCCO[C@H](CN(C)C(=O)CCC(F)(F)F)[C@@H](C)CN([C@H](C)CO)C(=O)c2cc(NC(=O)Nc3ccc4c(c3)OCO4)ccc2O1
-56.8[16.7 µM],5.5,COc1ccc(S(=O)(=O)Nc2ccc3c(c2)CC(=O)N([C@H](C)CO)C[C@H](C)[C@H](CN(C)Cc2ccc(Cl)c(Cl)c2)O3)cc1

# (list continues)
Env fusion inh,Yeast UUG start,compound
19.5[16.7 µM],1.2,Cc1noc(C)c1NC(=O)Nc1ccc2c(c1)CC(=O)N([C@@H](C)CO)C[C@H](C)[C@H](CN(C)S(=O)(=O)c1cn(C)cn1)O2
-54.7[16.7 µM],5.4,Cc1ccc(S(=O)(=O)Nc2ccc3c(c2)C(=O)N([C@H](C)CO)C[C@@H](C)[C@@H](CN(C)C(=O)CCC(F)(F)F)OCCCC[C@H](C)O3)cc1
3.1[16.7 µM],6.5,O=C1O[C@H](c2ccccc2)[C@H](c2ccccc2)N2[C@H]1[C@@H](C(=O)O)[C@]1(C(=O)Nc3ccc(C#CCCO)cc31)[C@H]2c1ccc(O)cc1
-37.8[16.7 µM],-9.1,COc1cccc(-c2cn(CC[C@@H]3CC[C@@H](NC(=O)CC4CC4)[C@H](CO)O3)nn2)c1
6.4[16.7 µM],-7.9,CC(C)CC#Cc1cnc2c(c1)C(=O)N([C@@H](C)CO)C[C@@H](C)[C@H](CN(C)C(=O)Cc1ccncc1)O2
15.1[16.7 µM],2.9,C[C@@H]1CN([C@@H](C)CO)C(=O)c2cccc(NC(=O)Nc3ccccc3)c2O[C@H]1CN(C)CC1CCCCC1
10.4[16.7 µM],-19.4,C[C@@H]1CN([C@H](C)CO)C(=O)c2cc(NS(=O)(=O)c3cn(C)cn3)ccc2O[C@@H](C)CCCCO[C@H]1CN(C)CC1CCCCC1
-14.5[16.7 µM],1.5,CCCNC(=O)C[C@@H]1CC[C@H]2[C@@H](COc3ccc(NC(=O)Cc4cccs4)cc3C(=O)N2C)O1
-14.9[16.7 µM],-0.4,CNC[C@@H]1Oc2c(NS(=O)(=O)c3ccc(F)cc3)cccc2C(=O)N([C@@H](C)CO)C[C@H]1C
-6.3[16.7 µM],-9.6,COc1ccc(CNC(=O)C[C@H]2C=C[C@@H](NS(=O)(=O)c3cccc(OC)c3)[C@H](CO)O2)cc1
15.0[16.7 µM],-13.5,CC(C)NC(=O)Nc1ccc2c(c1)C(=O)N([C@@H](C)CO)C[C@H](C)[C@H](CN(C)CC1CCCCC1)O2
